# Screening data (PubChem)
# KSHV LANA nucl – LANA-nucleosome interaction inhibition. actives 0.3% (n = 51,000). FITC-LANA1-23 / chicken nucleosome fluorescence polarization; active compounds read low. z-score (test concentration not listed);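 active means both repeat wells score below -2 in polarization z-score versus plate sample wells, excluding overly bright wells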;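 further: 100 nL library stock added to about 30 µL; numbers are from one replicate; some results filed as inactive read as strong as hits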
#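 test system = FITC-LANA peptide and chicken nucleosomes | amount = 240 nM purified chicken nucleosomes (480 nM peptide binding sites), final | reagent = 50 nM FITC-LANA1-23 probe | medium = TEN-BT buffer, pH 7.5 | doses = single compound addition by pin transfer, 100 nL per well | timing = 10–45 min, room temperature | detection = fluorescence polarization | repeats = duplicate plates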
# BasE inh – inhibitors of Acinetobacter baumannii siderophore enzyme BasE | inhibition, % (no concentration beside the values) | actives 0.1% (n = 84,000) | AID 485350 | purified BasE, fluorescence polarization binding displacement;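 active means both replicates above 25% with normal brightness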;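 further: 0% = negative plate control signal and 100% = positive plate control signal; stock transfer was 100 nL into about 30 µL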
# * marks the source's active call; other numbers are inactive results; nt = no result given; & = joins results of further samples. This is a subset, so the mix of outcomes need not match the whole.
no.	structure	KSHV LANA nucl	BasE inh
1	CCN(CC)c1nc(Nc2ccccc2)nc(Oc2ccc(=O)[nH]n2)n1	0.59	-1.2
2	O=c1c2snc(-c3ccc(Cl)cc3)c2ncn1C1CC1	-0.1	0.1
3	COc1ccc(-c2ocnc2C(=O)NC2CCCc3ccccc32)cc1 (configuration not stated)	0.041	-0.5
4	CCOC(=O)/C(C#N)=C/C1=C(N)CC(C)(C)OC1	0.89	-1.6
5	COC(=O)C(NC(=O)Nc1ccccc1OC)C(C)C (configuration not stated)	nt	0.5
6	C/C(CCc1oc2ccccc2c1-c1ccc(C)o1)=N\O	nt	2.9
7	Cc1cccc(N2CCN(C(=O)C(NC(=O)c3c(F)cccc3F)C(C)C)CC2)c1C (configuration not stated)	nt	-0.5
8	CC(=O)N1CC(C(=O)NC2CCCCCC2)Oc2ccccc21 (configuration not stated)	nt	-0.9
9	N#Cc1c(C(F)(F)F)cc(-c2ccccc2)nc1SCC(N)=O	0.68	-0.1
10	Cc1cc(C)n(C(=O)CC#N)n1	-0.27	-1.1
11	O=C1CC(c2ccc3c(c2)OCO3)CC2=C1C(c1ccncc1)Nc1ccccc1N2 (configuration not stated)	-0.44	0.4
12	O=C1NC2(CCCCC2)N(C(=O)c2ccccc2F)C2=C1CCCC2	0.77	0.6
13	CCOP(=O)(c1ccccc1)C1(O)CCCCC1 (configuration not stated)	0.33	-1.8
14	Cc1ccc(CC(=O)OC(C)C(N)=O)cc1C (configuration not stated)	nt	-0.2
15	COc1cc2ncc(C(=O)c3ccccc3)c(N3CCOCC3)c2cc1OC	-0.29	-1.1
16	CCCCOC(=O)Cc1c(C)[nH]c(=O)[nH]c1=O	-0.73	1.2
17	CCc1ccc(S(=O)(=O)Nc2ccc3oc4c(c3c2)C(=O)CCC4)cc1	-0.56	0.3
18	CCCN(CCC)S(=O)(=O)c1ccc(CCN2C(=O)c3cccnc3C2=O)cc1	2.7	-0.9
19	c1ccc(-c2nnc3ccc4nnc(-c5ccccc5)n4n23)cc1	-1	-1.3
20	CC(C)C(=O)NC(C)C(c1cccs1)N1CCN(c2ccccc2)CC1 (configuration not stated)	-0.051	2.4
21	CS(=O)(=O)Cc1ccc(C(=O)O)cc1	nt	0.9
22	O=C(O)c1ccc(C(=O)Nc2cccc(Cl)c2)c(C(=O)O)c1	-0.7	3.1
23	CCOc1ccccc1/C=N/NC(=O)c1ccccc1O	0.16	-2.2
24	NNC(=O)CN1c2ccccc2Sc2ccccc21	nt	1.1
25	CCC(C)c1ccc(S(=O)(=O)N2CCN(C(C)CC(=O)O)CC2)cc1 (configuration not stated)	nt	-1.4
26	N#CCn1c(CN2CCOCC2)nc2ccccc2c1=O	nt	-1.5
27	CCOC(=O)C1=C(C)NC(=O)CC1c1ccc(F)cc1 (configuration not stated)	-0.22	nt
28	Cc1ccc(C)c(Cn2cccc2C2=NC(C)(C)CO2)c1	-0.49	1.0
29	O=c1[nH]nc2ccccn12	nt	-2.9
30	c1ccc2c(c1)CC(Nc1ccc3cn[nH]c3c1)C2	0.21	4.5

# Entries above that contain a furan ring, fused or not, in the order listed:
no.	structure	KSHV LANA nucl	BasE inh
6	C/C(CCc1oc2ccccc2c1-c1ccc(C)o1)=N\O	nt	2.9
17	CCc1ccc(S(=O)(=O)Nc2ccc3oc4c(c3c2)C(=O)CCC4)cc1	-0.56	0.3

# Later entries
no.	structure	KSHV LANA nucl	BasE inh
31	COC(=O)C12CCC3(C(=O)OC)CC(C(=O)OC)(CC(C(=O)OC)(C1)C3=O)C2=O	-0.3	2.7
32	COc1ccccc1OCC(=O)N/N=C1/SCC(=O)N1Cc1ccccc1	0.3	0.8
33	N#CCOC(=O)c1ccccc1Sc1ccccc1C#N	nt	-0.1
34	O=C(OCC(=O)N1CCCCCC1)c1ccccc1	nt	1.1
35	Cc1csc(/C(C#N)=N/OC(=O)c2ccco2)n1	nt	-0.8
36	O=C(COc1ccccc1)c1nnc(-c2ccc(Cl)cc2)o1	nt	0.7
37	CSc1scc2c1/C(=N/OC(C)=O)CC(C)(C)C2	0.053	-0.6
38	Cc1ccc(CNCCO)o1	0.65	1.3
39	C#CCN(C)Cc1ccccc1	-0.029&0.44	-2.5
40	COc1cccc(OCc2nnc(SCc3csc(Nc4ccc(C)cc4)n3)n2N)c1	nt	-1.0
41	C=CCC(O)(CC=C)C1CCCN1 (configuration not stated)	-2	-1.0
42	C=CCn1c(CSc2nc(N)cc(N)n2)n[nH]c1=S	-0.72	0.4
43	CN(C(=O)CSc1n[nH]c(N)n1)C1CCCCC1	nt	1.2
44	COC(=O)C1=C(C)NC(=O)N(C(C)=O)C1c1ccc(OC)cc1 (configuration not stated)	1.1	-2.9
45	COc1ccc(OCCn2c(=O)n(CCOc3ccc(OC)cc3)n(-c3ccccc3)c2=O)cc1	nt	-2.1
46	Clc1ccc2oc(-c3ccccc3)c/c(=N\c3nccs3)c2c1	nt	-1.4
47	N#Cc1c(N)nc2c(c1-c1ccccc1)CCCC2	2	-2.5
48	Cc1ccc(CN2C(=O)NC(c3ccc(F)cc3)C2=O)cc1 (configuration not stated)	nt	0.4
49	O=C(O)CCCC1OC(CCCC(=O)O)OC(CCCC(=O)O)O1 (configuration not stated)	-0.49	-0.3
50	Cc1cc(CS)cs1	-0.098	-2.1
51	CN(S(=O)(=O)c1ccc2c(c1)OCCO2)S(=O)(=O)c1cccs1	nt	2.9
52	O=C(O)COCC(=O)Nc1nc(SCc2ccc(Cl)cc2)n[nH]1	0.16	-2.0
53	COc1ccc(/C=C(\C#N)S(=O)(=O)c2ccc(Cl)cc2)cc1	nt	-0.7
54	CC1Cc2ccccc2N1C(=O)C1CCCO1 (configuration not stated)	-0.072	1.6
55	CCC(CO)NC(=S)Nc1c(C)cccc1C (configuration not stated)	-0.36	2.4
56	COc1ccc(/C=N/c2ccco2)cc1	0.27	-1.1
57	CCC(=O)NS(=O)(=O)c1ccc(-c2c(-c3ccccc3)noc2C)cc1	-0.7	nt
58	COc1ccc2cc(/C(C)=N/n3c(=S)[nH][nH]c3=S)ccc2c1	nt	-0.6
59	c1ccc(C2CC(c3ccco3)n3ncnc3N2)cc1 (configuration not stated)	nt	1.7
60	Cc1cc(C2N=C(N)Nc3nc4ccccc4n32)c(C)n1-c1ccccc1F (configuration not stated)	nt	0.5

# By substructure, the entries above containing a thiophene ring, fused or not (4)
no.	structure	KSHV LANA nucl	BasE inh
20	CC(C)C(=O)NC(C)C(c1cccs1)N1CCN(c2ccccc2)CC1 (configuration not stated)	-0.051	2.4
37	CSc1scc2c1/C(=N/OC(C)=O)CC(C)(C)C2	0.053	-0.6
50	Cc1cc(CS)cs1	-0.098	-2.1
51	CN(S(=O)(=O)c1ccc2c(c1)OCCO2)S(=O)(=O)c1cccs1	nt	2.9

# Further entries follow:
no.	structure	KSHV LANA nucl	BasE inh
61	COc1ccc(OC(=O)c2csc(COc3ccc4nonc4c3)n2)cc1	nt	-3.7
62	CSc1nc2sc3c(c2c(=O)n1-c1ccccc1)CCN(C(C)=O)C3	0.71	3.3
63	O=C1CNC(=S)N1CCc1ccccc1	nt	-0.3
64	CNc1ccc(Cl)nn1	-0.96	0.9
65	CCn1nnc2c(N3CCC(O)CC3)ncnc21	0.099	1.1
66	N#Cc1ccccc1NC(=O)Nc1cc(-c2cccs2)nn1-c1ccc(I)cc1	1.3	0.0
67	CNC(=O)c1ccc2c(c1)CCN2S(C)(=O)=O	0.002	1.2
68	O=C(NC(=S)Nc1ncccn1)c1ccc(F)cc1	nt	0.9
69	Cc1cc(C)n(C(=O)c2ccc(NC(=O)CC(C)C)cc2)n1	-0.43	-1.2
70	COC(=O)c1ccc(CO)nc1	0.059	0.6
71	CCCN(C)C(=O)c1cc2ccccc2oc1=O	-1.3	2.0
72	Cc1ccc(CN(CC(=O)NC2CCCC2)C(=O)CSc2nnc(COc3ccccc3)o2)cc1	0.25	2.3
73	CCc1nc2cccnc2n1-c1ccc(CC(=O)NC2CCCC2)cc1	0.26	-0.2
74	Cc1cccc(N/C=C2/CCCCC2=O)c1	0.39	0.3
75	COc1cccc(/C=N/N(C)C2=NS(=O)(=O)c3ccccc32)c1O	-0.95	2.2
76	Cc1ccc(S(=O)(=O)NC(=O)c2cc(C)n(CCCN3CCOCC3)c2C)cc1	nt	2.1
77	CC(C)NC(=O)CC1(C(=O)O)CCCC1	nt	0.7
78	O=C(Nc1ccccc1)Nc1ccc2c(c1)nc1n2CCN(Cc2ccccc2)C1	-0.53	0.9
79	O=C1OC2(C(=O)c3ccccc3C2=O)/C(=C(\O)c2ccc(F)cc2)C1=O	nt	4.2
80	O=C(Nc1ccccc1)N1CCN(c2ccccc2)CC1	nt	-1.2
81	Cc1cc(C(=O)COC(=O)c2ccccc2NS(=O)(=O)c2ccc3c(c2)OCCO3)c(C)n1C	nt	-0.1
82	C#CC1(O)CCCCCCCCCCC1	0.68	-1.2
83	Cc1c(C(=O)O)sc2nc(CSc3nnc(-c4ccc(F)cc4)n3C)[nH]c(=O)c12	nt	0.9
84	Cc1ccccc1-c1nc(CS(=O)(=O)CC(=O)NCCN2CCOCC2)c(C)o1	-0.16	-0.5
85	Cc1ccc(C(=O)OCC(=O)Nc2ccc(Cl)cn2)cc1S(=O)(=O)N1CCOCC1	nt	-2.5
86	CCOCC(=O)OCc1ccc(COC(=O)COCC)cc1	nt	-0.3
87	CNC(=O)Nc1cccc(-c2cc(-c3c(Cl)cccc3Cl)no2)c1	nt	-6.7
88	O=C(CN1CCN(S(=O)(=O)c2ccccc2)CC1)Nc1ccc(N2CCOCC2)cc1	nt	0.5
89	COCCN1C(=O)/C(=C/c2c(N(C)C)nc3ccccn3c2=O)SC1=S	3.3	-23
90	O=C1COc2ccc(-c3csc(=Nc4ccc(F)cc4)n3/N=C/c3ccc(O)c(O)c3)cc2N1	nt	7.8
91	COc1ccccc1N1C(=O)CCC1(C)C(=O)NCc1ccccc1 (configuration not stated)	0.69	1.2
92	COc1ccc(N2CCOCC2)cc1	0.36	2.1
93	Cc1sc2nc(SCc3nnc(-c4cccs4)o3)n(C3CCCC3)c(=O)c2c1C	nt	2.8
94	CCCN(CC(=O)Nc1cc(Cl)ccc1Cl)C(=O)CSc1nnc(-c2ccc(OC)cc2)o1	nt	0.3
95	Cc1ccc(N2CCN(S(=O)(=O)N3CCOCC3)CC2)cc1Cl	-0.87	0.6
96	O=C1CSc2ccc(C(=O)NCc3ccccn3)cc2N1	nt	3.2
97	COc1cc(OC)cc(-c2nnc(SCCOc3cc(C)ccc3C)o2)c1	nt	-2.5
98	O=C(NN1C(=O)C2C3C=CC(C3)C2C1=O)c1ccccc1 (configuration not stated)	-0.26	-0.9
99	N#Cc1ccc(CSc2nccc(=O)[nH]2)cc1	nt	2.7
100	O=C(CCN1c2ccccc2Sc2ccccc21)N1CCN(C(=O)c2ccco2)CC1	nt	1.0
101	O=C(Cc1csc(-c2ccccc2)n1)N1CCCC1c1cccs1 (configuration not stated)	nt	-2.7
102	O=C(Nc1ccccc1O)c1cccc(S(=O)(=O)Nc2ccccc2O)c1	0.17	0.4
103	O=C(O)c1c2c(nc3ccccc13)-c1ccccc1CC2	0.99	-1.4
104	Cn1ccccc1=S	nt	4.1
105	Cc1ccc2oc(=O)n(CC/C(N)=N/OC(=O)c3ccccc3)c2c1	-0.72	-1.7
106	O=C(Cc1ccc(F)cc1)Nc1nncs1	0.076	0.4
107	CCNC(=S)N1CCn2cccc2C1c1ccc(OC)cc1 (configuration not stated)	-0.21	0.1
108	S=C(NCC1CCCO1)NC1CC1 (configuration not stated)	0.2	1.1
109	COc1ccc(S(=O)(=O)NC(C)C(N)=O)cc1 (configuration not stated)	0.26	1.5
110	CCN1C(=S)SC(=O)C1=C1C=C(C)N(Cc2ccco2)C(C)=C1	nt	-7.0
111	Cc1ccc2nc(S/C=C/C(=O)c3ccccc3)[nH]c2c1	nt	-0.6
112	CN(C)CCNC(=O)c1cc(-c2ccccc2)nc2ccccc12	-0.12	-2.0
113	COc1cc(NS(=O)(=O)c2cc(C)c(Cl)cc2C)c(C(=O)O)cc1OC	-0.48	4.3
114	FC(F)(F)c1cccc(-c2csnn2)c1	-0.38	nt
115	CCCCn1c(-c2ccc(OC)cc2)nc2ccccc21	nt	1.0
116	Cc1cc(C)n(C)c(=O)c1C(=O)O	0.14	-0.3
117	CN(CC(=O)Nc1ccc(F)cc1)C(=O)CCc1ccccc1	nt	1.7
118	CN=c1scc(-c2ccc(F)cc2)n1/N=C/c1ccc(C)o1	nt	2.0
119	CCCc1nc2ccccc2n1CC(=O)Nc1ccc(S(=O)(=O)N(C)C)cc1	nt	-1.1
120	O=C(NCC1CCCO1)c1ccc(COCC(F)(F)C(F)F)cc1 (configuration not stated)	0.68	1.1

# (cont.)
no.	structure	KSHV LANA nucl	BasE inh
121	CC(=O)Nc1ccc(C(=O)OCC(=O)N2CCCCC2C)cc1 (configuration not stated)	nt	1.2
122	CN(C)c1cccc(C(=O)NN2C(=O)NC3(CCCCC3)C2=O)c1	nt	0.5
123	CCOC(=O)N1CCN(c2ncnc3c2cnn3-c2ccccc2)CC1	0.33	-0.1
124	c1cnc(Sc2nc3ccccc3s2)nc1	nt	-1.4
125	CCOc1cccc(CNCCN2CCOCC2)c1	0.96	-0.2
126	C=C/C=C1/OCO/C1=C/CC(=O)N=c1c(C#N)cc2c(=O)n3cccc(C)c3nc2n1CCCCC	nt	-0.4
127	CCN(Cc1ccccc1)S(=O)(=O)c1cc(Cl)ccc1Cl	nt	-0.2
128	CC(=O)N1Cc2ccccc2CC1C(=O)NCc1ccccc1F (configuration not stated)	nt	1.7
129	C=CCn1c(=O)c2ccccc2n2c(=S)[nH]nc12	nt	1.0
130	O=S(=O)(Nc1ccc(N2CCCCC2)cc1)c1cccc(Cl)c1	-0.83	nt
